Screens: PubChem BioAssay, ICCB-Longwood Screening Facility, Harvard Medical School
GIV-Gai inh: blocks GIV peptide binding to rat Galpha-i3. P08753. AID 1224905. percent of control (FP), % (concentration not given with the values). 0.42% of 210,000 active. Galpha-i3/FITC-GIV peptide fluorescence polarization, 90 min; stronger effect = lower value; scaled: aluminum fluoride 0%, vehicle 100%;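 active means replicate mean at 85% of control or lower, very high polarization wells dropped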;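 further: wells of about 15 µL received 100 nL stock; the first replicate is given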
Target sequence (P08753 whole entry, looked up): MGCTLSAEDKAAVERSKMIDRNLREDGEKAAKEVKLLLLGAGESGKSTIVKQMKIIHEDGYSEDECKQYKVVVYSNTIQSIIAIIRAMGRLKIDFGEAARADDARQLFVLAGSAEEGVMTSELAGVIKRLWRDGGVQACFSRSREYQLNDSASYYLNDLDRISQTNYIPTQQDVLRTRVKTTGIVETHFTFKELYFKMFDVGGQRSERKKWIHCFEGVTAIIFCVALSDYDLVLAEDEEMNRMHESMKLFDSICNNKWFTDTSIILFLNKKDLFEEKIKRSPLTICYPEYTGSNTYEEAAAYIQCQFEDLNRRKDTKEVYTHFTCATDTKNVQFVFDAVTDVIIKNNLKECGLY
Sa growth inh: blocks Staphylococcus aureus growth. 0.53% of 170,000 active. relative growth, % (test concentration not listed). AID 720641. S. aureus RN4220 growth, OD600, 20 h, 42 °C; stronger effect = lower value;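 active means growth at 42 °C up to 50% and 20 or more points under that at 30 °C, or under 10% at both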;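 further: 300 nL library stock went into each well; scaled to the means of positive and negative controls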
HCMV NEC inh: cytomegalovirus nuclear egress complex inhibition | HTRF UL50-UL53 interaction, normalized percent inhibition | inhibition, % (no concentration beside the values) | 0.15% of 190,000 active | AID 1918969;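 active means both replicates at 50% or more, plus weaker picks with an unusually low signal ratio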;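 further: stock transfer was 100 nL into about 20 µL; 0% = negative control wells and 100% = wells with untagged competitor protein; inactives centre near -12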
Sa growth inh second temp: second read-out of Sa growth inh, no call of its own (marks repeat the call); relative growth, %; measured here: growth at 30 °C;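 optical density after 20 h as mean of two plates; 100% = untreated growth and lower means inhibition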
Numbers without * were called inactive; & = joins results of further samples. Rows were taken by chance, and some 0.82% of all compounds hit somewhere here.

What do the screens show for `Cc1noc(C)c1CCOC(=O)c1cc(-c2ccc(Br)cc2)nc2ccccc12`?
Sa growth inh: 78; HCMV NEC inh: -28; Sa growth inh second temp: 91

How did Cc1ccc(NC(=O)C(C)OC(=O)Cc2coc3cc(C)ccc23)cc1 (configuration not stated) do in these assays?
Sa growth inh: 101; HCMV NEC inh: 8; Sa growth inh second temp: 97

How did CC(C)c1ccc(NC(=O)CSC2=Nc3ccccc3C3=NC(CC(=O)NCc4ccc(F)cc4)C(=O)N23)cc1 (configuration not stated) do in these assays?
GIV-Gai inh: 104; Sa growth inh: 102; Sa growth inh second temp: 84

What do the screens show for `CCOC(=O)c1nn(-c2cc(C(=O)OC)cc(C(=O)OC)c2)cc1O`?
Sa growth inh: 89; HCMV NEC inh: -10; Sa growth inh second temp: 91

Results for COc1ccc(NC(=O)c2sc3nc(-c4cc5cccc(OC)c5oc4=O)[nH]c(=O)c3c2C)cc1 ?
GIV-Gai inh: 100; Sa growth inh: 112; HCMV NEC inh: 1; Sa growth inh second temp: 94

Results for Cc1ccc(C)c(N2CCN(C(=O)Cn3c(C)c4cnn(-c5ccccc5)c(=O)c4c3C)CC2)c1 ?
GIV-Gai inh: 111; Sa growth inh: 77; HCMV NEC inh: -6; Sa growth inh second temp: 86

What do the screens show for `COc1ccc(CNCC#N)cc1OC`?
GIV-Gai inh: 98; Sa growth inh: 85; HCMV NEC inh: -32; Sa growth inh second temp: 82

What do the screens show for `O=C(O)CCCn1cc(NC(=O)c2ccco2)cn1`?
GIV-Gai inh: 109; Sa growth inh: 105; HCMV NEC inh: -33; Sa growth inh second temp: 96

How did CS(=O)(=O)Nc1cc(NS(C)(=O)=O)cc(C(F)(F)F)c1 do in these assays?
GIV-Gai inh: 98; Sa growth inh: 101; HCMV NEC inh: -21; Sa growth inh second temp: 91

What do the screens show for `O=C(c1ccc(N2CCc3ccccc32)nn1)N1CCc2ccccc21`?
GIV-Gai inh: 103; HCMV NEC inh: -24

Results for COc1ccc(-c2noc(-c3cccnc3NCc3ccco3)n2)cc1 ?
GIV-Gai inh: 108; Sa growth inh: 90; HCMV NEC inh: -3; Sa growth inh second temp: 85

Results for Cc1cccc(N2C(=O)N(Cc3cc(=O)n4ccccc4n3)c3ccccc3S2(=O)=O)c1 ?
GIV-Gai inh: 102; Sa growth inh: 82; Sa growth inh second temp: 88

How did COC(=O)CSc1nnc2n1CCN2c1ccccc1 do in these assays?
GIV-Gai inh: 103; HCMV NEC inh: -24

Results for Cc1ccccc1C(=O)Nc1cc2c(cc1S(=O)(=O)C1CCCCC1)n(C)c(=O)c(=O)n2C ?
GIV-Gai inh: 101; HCMV NEC inh: -16

What do the screens show for `CN(C)C(=O)c1ccc(NC(=O)Cn2nnnc2-c2ccccc2F)cc1`?
GIV-Gai inh: 96; Sa growth inh: 101; HCMV NEC inh: 10; Sa growth inh second temp: 87

How did CSc1cccc(NC(=O)CN(C)S(=O)(=O)c2ccc3c(c2)n(C)c(=O)c(=O)n3C)c1 do in these assays?
GIV-Gai inh: 103; Sa growth inh: 97; HCMV NEC inh: -21; Sa growth inh second temp: 91

Results for O=C(c1ccccc1)c1nnc(-c2ccccc2)o1 ?
Sa growth inh: 119; HCMV NEC inh: -73; Sa growth inh second temp: 74

Results for Cc1cc(C(=O)CSc2nc(N)cc(N)n2)c(C)n1C ?
Sa growth inh: 101; HCMV NEC inh: 1; Sa growth inh second temp: 94

What do the screens show for `COc1cc(NC(=O)c2nc3nc(C)cc(C(F)F)n3n2)c(OC)cc1Cl`?
GIV-Gai inh: 100; Sa growth inh: 103; HCMV NEC inh: -41; Sa growth inh second temp: 86

What do the screens show for `CCOc1cc(/C=C2/SC(=N)N(c3nccs3)C2=O)ccc1OCCN1CCOCC1`?
Sa growth inh: 8.0*; HCMV NEC inh: -36; Sa growth inh second temp: 3.4*

How did O=C(NCC(c1ccccc1)c1ccccc1)c1nn(-c2ccccc2Cl)nc1CO do in these assays?
GIV-Gai inh: 97; Sa growth inh: 101; HCMV NEC inh: -20; Sa growth inh second temp: 87

How did C=CCN(CC=C)S(=O)(=O)c1ccc(C(=O)Nc2nc3c(s2)CC(C)CC3)cc1 (configuration not stated) do in these assays?
GIV-Gai inh: 102; Sa growth inh: 111; Sa growth inh second temp: 85

Results for O=C(c1ccco1)N1CCN(C(c2ccccc2)c2sc3ncnn3c2O)CC1 (configuration not stated) ?
GIV-Gai inh: 96; Sa growth inh: 88; HCMV NEC inh: -7; Sa growth inh second temp: 88

Results for O=c1[nH]cccc1-c1nc(-c2cccc(Br)c2)no1 ?
GIV-Gai inh: 101; HCMV NEC inh: -50

What do the screens show for `COc1ccc(Cl)cc1NC(=O)NCC1CCN(Cc2ccccc2F)CC1`?
GIV-Gai inh: 101; Sa growth inh: 105; HCMV NEC inh: 60; Sa growth inh second temp: 84

How did CCOC(=O)c1[nH]c(C)c(CC(C)C)c1C do in these assays?
Sa growth inh: 80; HCMV NEC inh: 13; Sa growth inh second temp: 89

What do the screens show for `Cc1nn(Cc2ccccc2)c2ncccc12`?
GIV-Gai inh: 102; Sa growth inh: 94; HCMV NEC inh: -7; Sa growth inh second temp: 86

How did CCc1cccc(NC(=O)CC2Oc3ccc(C)cc3NC2=O)c1 (configuration not stated) do in these assays?
GIV-Gai inh: 92; Sa growth inh: 96; HCMV NEC inh: -4; Sa growth inh second temp: 93

How did CN(C)c1ccc(C2N(Cc3ccccc3)CCN2Cc2ccccc2)cc1 do in these assays?
Sa growth inh: 87; HCMV NEC inh: -15; Sa growth inh second temp: 86

What do the screens show for `Cc1cc(C)n(C(=O)CNc2cccc(Cl)c2C)n1`?
Sa growth inh: 96; HCMV NEC inh: -5; Sa growth inh second temp: 99

What do the screens show for `CCOC(=O)Cn1c(-c2ccco2)nc(-c2ccccc2)c1-c1ccccc1`?
GIV-Gai inh: 104; Sa growth inh: 82; HCMV NEC inh: -18; Sa growth inh second temp: 76

Results for Cc1ccc(-n2nc(N3CCN(C(=O)c4cccnc4)CC3)ccc2=O)cc1 ?
GIV-Gai inh: 101; HCMV NEC inh: -47

What do the screens show for `O=C(c1cc(-c2ccc(O)cc2)on1)N1CCN(c2ccccc2)CC1`?
GIV-Gai inh: 104; Sa growth inh: 94; HCMV NEC inh: 23; Sa growth inh second temp: 60

What do the screens show for `Cc1cc(NC(=O)C2CC(=O)OC2c2ccccc2)no1` (configuration not stated)?
Sa growth inh: 89; HCMV NEC inh: -10; Sa growth inh second temp: 88

How did COc1ccc2c(c1)c(=O)oc1cc(OC(C)C)ccc12 do in these assays?
GIV-Gai inh: 101; Sa growth inh: 113; Sa growth inh second temp: 73

What do the screens show for `CCCCCn1c(=O)[nH]c2cc(C(=O)NC3CCC(C)CC3)ccc2c1=O` (configuration not stated)?
GIV-Gai inh: 96; Sa growth inh: 96; HCMV NEC inh: -36; Sa growth inh second temp: 82

Results for Cc1ccc(-n2nc(C(=O)N3CCN(c4ccc(Cl)cc4)CC3)cc2-c2cccnc2)cc1 ?
GIV-Gai inh: 106; HCMV NEC inh: -13

Results for O=C(Cc1c(C(=O)O)[nH]c2ccccc12)NCCN1CCN(c2ccccc2F)CC1 ?
GIV-Gai inh: 102; HCMV NEC inh: -24

Results for CC(Sc1nnc2n(C)c3ccccc3n12)C(=O)O (configuration not stated) ?
GIV-Gai inh: 103; Sa growth inh: 90; HCMV NEC inh: 4; Sa growth inh second temp: 91

Results for O=S(=O)(CCSCc1csc2ccccc12)c1ccc(F)cc1 ?
GIV-Gai inh: 100; Sa growth inh: 99; HCMV NEC inh: -8; Sa growth inh second temp: 92

Results for C=CCn1c(N2CCOCC2)nc2ccccc21 ?
GIV-Gai inh: 101; Sa growth inh: 87; HCMV NEC inh: -15; Sa growth inh second temp: 94

How did CCc1c(C)c2ccc(O)c(CN3CCN(c4ccccc4)CC3)c2oc1=O do in these assays?
GIV-Gai inh: 103; Sa growth inh: 114; HCMV NEC inh: -17; Sa growth inh second temp: 92

How did COc1cccc(C(=O)NCc2cn3ccccc3n2)c1 do in these assays?
GIV-Gai inh: 97&107; Sa growth inh: 101&102; HCMV NEC inh: -11&-1; Sa growth inh second temp: 84&91

What do the screens show for `COc1ccc(NC(=O)c2cccc(C)c2)c(OC)c1`?
Sa growth inh: 102; HCMV NEC inh: -4; Sa growth inh second temp: 91

Results for Cc1ccc(-c2cn3c(n2)sc2cc(C(=O)NC4CCCCCC4)ccc23)cc1 ?
GIV-Gai inh: 108; Sa growth inh: 100; Sa growth inh second temp: 98

How did Cc1nn(-c2ccccc2)nc1C(=O)NC1CCS(=O)(=O)C1 (configuration not stated) do in these assays?
GIV-Gai inh: 99; Sa growth inh: 101; HCMV NEC inh: -10; Sa growth inh second temp: 88

Results for O=C(CSc1nnc2sc3ccccc3n12)N1CCN(c2ccccc2)CC1 ?
GIV-Gai inh: 101; HCMV NEC inh: 21

Results for CCOc1ccc(N=C2NC(=O)C(CC(=O)NC(N)=O)S2)cc1 (configuration not stated) ?
GIV-Gai inh: 101; Sa growth inh: 94; HCMV NEC inh: -33; Sa growth inh second temp: 88

Next part (4 carried over from the part before).
Results for Cc1ccc(-c2cn3c(n2)sc2cc(C(=O)NC4CCCCCC4)ccc23)cc1 ?
GIV-Gai inh: 108; Sa growth inh: 100; Sa growth inh second temp: 98

How did Cc1nn(-c2ccccc2)nc1C(=O)NC1CCS(=O)(=O)C1 (configuration not stated) do in these assays?
GIV-Gai inh: 99; Sa growth inh: 101; HCMV NEC inh: -10; Sa growth inh second temp: 88

Results for O=C(CSc1nnc2sc3ccccc3n12)N1CCN(c2ccccc2)CC1 ?
GIV-Gai inh: 101; HCMV NEC inh: 21

Results for CCOc1ccc(N=C2NC(=O)C(CC(=O)NC(N)=O)S2)cc1 (configuration not stated) ?
GIV-Gai inh: 101; Sa growth inh: 94; HCMV NEC inh: -33; Sa growth inh second temp: 88

How did Cc1ccc(CN(C)CCc2ccccn2)cc1 do in these assays?
GIV-Gai inh: 102; Sa growth inh: 82; HCMV NEC inh: -9; Sa growth inh second temp: 83

How did CCOC(=O)C1CCN(C(=O)COc2ccc(S(=O)(=O)N3CCCCC3)cc2Cl)CC1 do in these assays?
GIV-Gai inh: 101; Sa growth inh: 83; HCMV NEC inh: 6; Sa growth inh second temp: 104

How did CNC(=O)c1sc(NCc2ccco2)nc1C do in these assays?
Sa growth inh: 98; HCMV NEC inh: -4; Sa growth inh second temp: 87

How did O=C(NC(Cc1c[nH]c2ccccc12)C(=O)O)c1cccs1 (configuration not stated) do in these assays?
Sa growth inh: 90; HCMV NEC inh: -17; Sa growth inh second temp: 94

Results for Cc1cccc(-c2nn3c(=O)cc(N4CCN(S(=O)(=O)c5ccccc5C)CC4)nc3s2)c1 ?
GIV-Gai inh: 105; HCMV NEC inh: -5

What do the screens show for `CCC(=O)N1CCc2cc(Br)cc(S(=O)(=O)CCC(=O)NCc3ccc(C)cc3)c21`?
GIV-Gai inh: 99; Sa growth inh: 84; HCMV NEC inh: -2; Sa growth inh second temp: 89

Results for CCC(C)NC(=O)CCc1c(C)nc2cc(-c3ccc(OC)cc3OC)nn2c1C (configuration not stated) ?
GIV-Gai inh: 106; Sa growth inh: 103; HCMV NEC inh: -37; Sa growth inh second temp: 91

Results for CCOc1ccc(CNC(=O)C2CCCN(c3nc4c(C)cc(C)cc4s3)C2)cc1 (configuration not stated) ?
GIV-Gai inh: 107; Sa growth inh: 104; HCMV NEC inh: -8; Sa growth inh second temp: 78

How did CCN(CC)S(=O)(=O)c1nnc(NC(=O)c2ccccc2Cl)s1 do in these assays?
GIV-Gai inh: 99; Sa growth inh: 131; HCMV NEC inh: -1; Sa growth inh second temp: 76

How did CCC(=O)OC1=C(C)C2C3C(=O)N(c4ccccc4F)C(=O)C3C1(C)C1C(=O)N(c3ccccc3F)C(=O)C21 (configuration not stated) do in these assays?
GIV-Gai inh: 105; HCMV NEC inh: -31

How did COc1ccc(C2C(C(=O)Nc3ccc(OC)c(OC)c3)c3ccccc3C(=O)N2C)cc1 (configuration not stated) do in these assays?
GIV-Gai inh: 97; Sa growth inh: 89; Sa growth inh second temp: 79

What do the screens show for `CC[N+](CC)=c1scc(-c2ccc(Cl)cc2)s1`?
Sa growth inh: 31; HCMV NEC inh: -32; Sa growth inh second temp: 50

Results for NS(=O)(=O)c1ccc(CCNC(=O)CSc2nc3ccccc3c(=O)n2-c2ccc3c(c2)OCO3)cc1 ?
GIV-Gai inh: 100; Sa growth inh: 81; HCMV NEC inh: 4; Sa growth inh second temp: 83

Results for Cc1ccc(Nc2c(-c3ccc(N4CCOCC4)cc3)nc3ccc(C)cn23)cc1 ?
GIV-Gai inh: 100; Sa growth inh: 93; HCMV NEC inh: -15; Sa growth inh second temp: 90

How did CCOC(=O)c1cc2c(c(CSc3cccc(C(F)(F)F)c3)c1)OCOC2 do in these assays?
GIV-Gai inh: 97; Sa growth inh: 98; HCMV NEC inh: -58; Sa growth inh second temp: 87

What do the screens show for `Cc1nc(N2CCN(C(=O)c3ccco3)CC2)[nH]c(=O)c1Cc1cccc(Cl)c1`?
GIV-Gai inh: 100; Sa growth inh: 112; HCMV NEC inh: -34; Sa growth inh second temp: 88

What do the screens show for `NC(N)=N/N=C/c1ccco1`?
GIV-Gai inh: 104; Sa growth inh: 130; HCMV NEC inh: -42; Sa growth inh second temp: 93

What do the screens show for `COc1cc(/C=C2\N=C(SC)SC2=O)cc(OC)c1OC(C)=O`?
GIV-Gai inh: 99; Sa growth inh: 111; HCMV NEC inh: -15; Sa growth inh second temp: 83
